# Calb biofilm kill – mixture kills Candida albicans biofilm cells; C. albicans biofilm persisters + clotrimazole, fluorescence viability; primary screen in compound mixtures of four per well; inhibition, % at 7.6 µM; 120,000 tested, 0.02% active;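 active means inhibition above 30.3% in the primary screen of four-compound pools, then above 30% when the compound was retested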;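 further: compounds exposed to preformed 24 h biofilms for 48 h; the number belongs to the whole pool; some results filed as inactive read as strong as hits; inactives centre near 12; 0% = biofilm with clotrimazole alone and 100% = kill control; retested singly at about 60 µM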
#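 Assay system: C. albicans biofilms / Medium: RPMI/MOPS medium, pH 7.0 / Schedule: biofilm formation 24 h, compound exposure 48 h, 37 °C / Measured by: Alamar Blue fluorescence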
# An asterisk follows results filed as active. This is a subset. The share of hits here may be higher or lower than overall.
SMILES,Calb biofilm kill
CCOc1ccc(C(NC(=O)/C=C/c2ccco2)c2ccc(OC)c(OC)c2)cc1 (stereo not drawn),-4
CCC(CO)NCc1ccc(OC2CCCC2)cc1 (stereo not drawn),4
COc1ccc(NC(C)=O)cc1C,6
CCC(CC)N=C1NS(=O)(=O)c2cc([N+](=O)[O-])ccc21,15
O=C(Cn1cccc1C(=O)c1ccccc1)NCc1cccc(Cl)c1,16
Nc1nc(NCc2ccco2)nc(Nc2ccccc2)c1[N+](=O)[O-],8
Cc1nn(-c2ccccc2)c(C)c1S(=O)(=O)O,-12
O=C(O)c1ccccc1N1C(=O)C2C3c4ccccc4C(Br)(c4ccccc43)C2C1=O (stereo not drawn),10
Cn1cc(C(=O)N/N=C/c2c(O)ccc3ccccc23)ccc1=O,20
Nc1nc(NC(=O)c2ccc(Cl)cc2)nn1-c1ccccc1,11
Cc1ccc(C(=O)NC(=S)NCc2cccnc2)cc1C,12
Cc1ccc(NC(=O)COC(=O)C2CC(=O)N(Cc3ccccc3)C2)cc1F (stereo not drawn),-3
Cc1ncn2cc(-c3ccc(Cl)cc3Cl)[nH]c(=O)c12,5
COc1cc(OC)c(OC)cc1/C=C1\CCC(C2CCCC2)C1=O (stereo not drawn),15
CCc1ccc(S(=O)(=O)/N=C2/C=C(Sc3ncn[nH]3)C(=O)c3ccccc32)cc1,14
CNC(=S)NN(C)c1nc(C)cc(C)n1,14
Cc1cc(N/C(=N/S(=O)(=O)c2ccc(F)cc2)c2ccccc2)n(-c2ccccc2)n1,11
O=C(O)C1Cc2ccccc2CN1S(=O)(=O)c1ccccc1 (stereo not drawn),5
COC(OC)c1ccnc(-c2ccc(OC(=O)c3ccccc3)cc2)n1,18
CCN1CCN(CCNC(=O)Nc2ccc([N+](=O)[O-])cc2)CC1,12
O=C(C1=C[C@@H]2[C@H]3C(=O)N(c4ccccc4)C(=O)[C@H]3[C@@H](C(=O)c3ccc(Cl)cc3)N2C=C1)c1ccccc1,17
COc1ccc(Cl)cc1NC(=S)N1CCCC1,7
COc1ccc(NC(=S)N2CCN(C/C=C/c3ccccc3)CC2)cc1,22
Cc1[nH]c2ccccc2c1SCC(=O)N1CCCCC1,14
CCOc1ccccc1N(CC(=O)NC1CCCCC1)C(=O)c1nsc(Cl)c1Cl,-9
SMILES,Calb biofilm kill
NNc1nc(-c2ccccc2)nc2sc3c(c12)CCCC3,-3
O=C(COc1ccccc1)c1cn(CC(=O)N2CCCC2)c2ccccc12,22
CC(=C\c1ccco1)/C=C(\C#N)C(=O)NCCc1c[nH]c2ccccc12,12
O=C(C[n+]1ccccc1)N/N=C/c1ccccc1[N+](=O)[O-],13
CCCCN(C)C(=O)c1nc2ccccn2c1CN1CCN(C(=O)c2cccs2)CC1,5
Cc1c(N2C(=O)CSC2c2ccco2)c(=O)n(-c2ccccc2)n1C (stereo not drawn),4
C[C@H](NC(=O)Nc1cccc(Br)c1)C(=O)O,23
Cc1[nH]c(C)c2c(=O)[nH]ncc12,14
Cc1cc(C)cc(C(=O)NC(=S)Nc2ccc(Cc3ccncc3)cc2)c1,11
CC1CN(CCCCN2C(=O)c3ccccc3C2=O)CC(C)O1 (stereo not drawn),8
CCn1nc(C(=O)NNC(=O)COc2ccccc2C)c2ccccc2c1=O,15
CCC1(C)C(Nc2c(C)cccc2C)=NC(=S)N1c1ccc(NC(C)=O)cc1 (stereo not drawn),16
Cc1ccc(N(C(C)C(=O)Nc2c(C)n(C)n(-c3ccccc3)c2=O)S(C)(=O)=O)cc1C (stereo not drawn),14
O=C(Nc1ccc(Cl)cn1)c1ccccc1[N+](=O)[O-],18
O=C(O)c1cccc(Oc2ccc([N+](=O)[O-])cc2)c1,14
CCN(C(=O)CSc1nc2cc(Cl)ccc2c(=O)n1Cc1ccco1)C1CCS(=O)(=O)C1 (stereo not drawn),10
CCOC(=O)C(=O)Nc1cccc(C(=O)OCC)c1,5
O=C1CC(c2ccccc2)SC(N(c2ccccc2)c2ccccc2)=N1 (stereo not drawn),12
CCn1cc(CN2CCc3c([nH]c4ccccc34)C2c2ccc(F)c(OC)c2)c(C)n1 (stereo not drawn),4
O=C(CCC(=O)OCC(=O)c1ccc(C(F)(F)F)cc1)OCC(=O)c1ccc(C(F)(F)F)cc1,3
CCn1c(Cc2ccccc2)nnc1SCC(=O)NC1CCCC1,9
NS(=O)(=O)c1ccc(-c2ccc(/C=C3\SC(=S)N(C4CCS(=O)(=O)C4)C3=O)o2)cc1 (stereo not drawn),25
COc1cc2cc(Oc3ccc4ccc(=O)oc4c3)c(=O)oc2cc1OC(=O)C=C(C)C,2
C=CCNc1c2c(nc3ncnn13)CC(C)CC2 (stereo not drawn),18
COC(=O)/C=C1\SC(=NC(=O)c2ccc(C)cc2)NC1=O,8
SMILES,Calb biofilm kill
CC(C)Nc1nc(-c2ccccc2)nnc1-c1ccccc1,17
O=c1[nH]c(C(Cl)Cl)nc2sc3c(c12)CCN(Cc1ccccc1)C3,-1
C[C@@H](C(=O)NCc1ccccn1)[C@H]1C[C@]1(C)[C@H](NC(=O)OCc1ccccc1)c1ccccc1,2
COc1ccc(Oc2nc(-c3ccccn3)ncc2OC)cc1,18
COC(=O)c1cc(OC)c(OC)cc1NC(=S)Nc1cccc(C(C)=O)c1,18
CCCCN(CC)CCNC(=O)c1nn(-c2ccc(OC)cc2)c(=O)c2c1c1ccccc1n2C,-5
COc1ccc(C2C(C#N)=C(C)NC3=C2S(=O)(=O)c2ccccc23)cc1 (stereo not drawn),9
COCCN1C=C(C(=O)OC)C(c2ccc(Cl)cc2)C(C(=O)OC)=C1,9
CCn1c(-c2ccccc2)c(C(=O)CC#N)c2ccccc21,3
S=C1NCN(Cc2ccco2)CN1Cc1ccco1,16
CCCCN(C)Cc1cc(=O)oc2cc3c(cc12)CCCC3,18
O=C(CN1CCN(Cc2ccccc2)CC1)N=Nc1c(O)[nH]c2ccccc12,10
CCOC(=O)c1ccccc1-c1cn2cc(Cl)ccc2n1,7
COC(=O)C1=C(C)N(C)C(=O)NC1c1ccc([N+](=O)[O-])o1 (stereo not drawn),5
CN(C)c1ccc(/C=N/NC(=O)CNC(=O)c2ccc3c(c2)OCCO3)cc1,19
O=[N+]([O-])c1ccccc1CNc1ccc(F)c(Cl)c1,-18
Cn1ccnc1SCC(=O)Nc1cccc(S(=O)(=O)N2CCCCCC2)c1,14
Cc1cc(C)nc(N/N=C/c2cccc([N+](=O)[O-])c2)n1,38
CCOc1ncccc1C(=O)OCC(=O)NCc1ccc2c(c1)OCO2,-2
C=CCN(CC=C)Cc1c(C)[nH]c2c(C)c(C)ccc2c1=O,24
CC(=O)Nc1ccc(OC(F)(F)Cl)cc1,10
CC(NC(=O)c1cccc(S(=O)(=O)N(C)C)c1)c1nc2ccccc2[nH]1 (stereo not drawn),14
COC(=O)CCc1nc2c(C#N)c(-c3ccc(Cl)cc3)ccn2n1,17
CC(=O)Nc1ccc(NC(=O)Cn2c(=O)n(-c3ccc(C)cc3)c(=O)c3oc4ccccc4c32)cc1,7
c1ccc(CSc2ncnc3ccccc23)cc1,-10

# Rewritten with each value named: 4 of the compounds above.
COc1ccc(Cl)cc1NC(=S)N1CCCC1
  Calb biofilm kill = 7

CC(NC(=O)c1cccc(S(=O)(=O)N(C)C)c1)c1nc2ccccc2[nH]1 (stereo not drawn)
  Calb biofilm kill = 14

COC(=O)c1cc(OC)c(OC)cc1NC(=S)Nc1cccc(C(C)=O)c1
  Calb biofilm kill = 18

O=c1[nH]c(C(Cl)Cl)nc2sc3c(c12)CCN(Cc1ccccc1)C3
  Calb biofilm kill = -1

# New compounds follow
SMILES,Calb biofilm kill
CC1(OC(=O)CCc2ccccc2)C(=O)C=C2C=C(c3ccc(C#N)cc3)N(C3CCCCC3)C=C2C1=O (stereo not drawn),17
CCCc1ccc(OC(=O)c2ccc(O)cc2Cl)cc1,15
N#Cc1cccc(NC(=O)NCCc2c[nH]c3ccccc23)c1,7
CN(NC1OC(=O)c2ccccc21)c1ncc(C(F)(F)F)cc1Cl (stereo not drawn),10
O=C(NN=C1CCCC1)c1cc(-c2ccc(F)cc2)nc2ccccc12,18
C=CCc1cc(Cl)ccc1OCCNCCN1CCOCC1,29
CCOC(=O)c1c(-c2cccc3ccccc23)csc1NC(=O)C1C2CCC(O2)C1C(=O)O (stereo not drawn),8
CCO[C@@H]1OC(C(=O)N2CCOCC2)=C[C@H](C2CC2)[C@H]1CCCO,2
O=C(CN1C(=O)S/C(=C\C=C\c2ccccc2)C1=O)Nc1ccccc1C(=O)O,13
C/C(=N/NC(=O)c1cc(C)[nH]n1)c1ccco1,11
CSc1nc2c(cc1C#N)CCC2,28
O=C(Cc1ccccc1Cl)NCCCn1ccnc1,10
O=C(O)c1cccnc1SCc1cccc(Cl)c1,21
CN(Cc1nc(-c2ccc(C(F)(F)F)cc2)no1)C1CCOCC1,6
O=C(Nc1cnn(Cc2ccc(F)cc2)c1)C(c1ccccc1)c1ccccc1,16
CCn1c(SCC(=O)OC)nnc1-c1ccccc1,8
COc1ccc(Cl)cc1C(=O)NCCc1ccc(S(=O)(=O)NC(=O)NC2CCCCC2)cc1,11
O=C(/C=C/c1ccco1)N1CCN(c2ccccc2)CC1,10
O=C(Cn1nc(C(=O)O)c2ccccc2c1=O)NCc1ccco1,4
COc1ccc(NC(=S)Nc2ccc(S(=O)(=O)N3CCOCC3)cc2)c(OC)c1,7
COc1cc(CCN2C(=O)N[C@@H](CCc3ccccc3)C(C(C)=O)=C2C)cc(OC)c1OC,6
S=C(NCC1COc2ccccc2O1)Nc1ccc(Br)cc1 (stereo not drawn),4
Nc1nc(SCC(=O)N2CCOCC2)[nH]c(=O)c1-c1ccccc1,5
CCOCCCNC(=O)C(NC(=O)Cc1c[nH]c2ccccc12)c1ccccc1 (stereo not drawn),12
CCN(C(=O)CSc1ncccc1C(=O)O)C1CCCCC1,12
SMILES,Calb biofilm kill
CN(CCc1nc2ccc(Cl)cc2[nH]1)Cc1nc(CC2CC2)no1,15
Cc1cc(/C=c2\sc3nc4ccccc4n3c2=O)c(C)n1-c1ccc(C(=O)O)cc1,7
O=C(COc1ccc(C(=S)N2CCOCC2)cc1Cl)Nc1ccccc1Cl,1
COC(=O)Cn1nnc(N2CCOCC2)n1,22
C(=N\Nc1ccc2nncn2n1)/c1ccccn1,17
Cc1cc(CN(C)C(=O)CCc2nnc(Cc3cccc(C(F)(F)F)c3)o2)on1,15
Cc1oc2cc(OCc3cnn(-c4ccccc4)c3)ccc2c(=O)c1Oc1ccccc1F,14
Cc1ccc(S(=O)(=O)N2CCN(CC(=O)N/N=C\c3ccncc3)CC2)cc1,27
S=c1[nH]nc(-c2ccncc2)n1/N=C/c1ccccc1,8
Cc1cccc(C)c1NC(=S)N(Cc1cccs1)C1CCCC1,18
CSc1cccc(NC(=O)NCc2cccc(CNC(=O)Nc3cccc(SC)c3)c2)c1,16
O=C1c2c([N+](=O)[O-])cc([N+](=O)[O-])cc2S(=O)N1Cc1ccccc1 (stereo not drawn),8
O=C(NC1CCCCCC1)c1ccc(=O)n(Cc2ccccc2)n1,8
CCCCc1nnc(NC(=O)CSc2nc(O)c(-c3ccccc3)c(=O)[nH]2)s1,26
CCOC(=O)c1sc(=S)n(-c2ccccc2)c1C,15
CCOc1ccccc1NC(=O)C1C2CCC3C(CCC21)C3(Cl)Cl (stereo not drawn),7
Cc1c([N+](=O)[O-])c(C/C=N/O)nn1C,11
COC(=O)CC1C(=O)NCCN1C(=S)Nc1cc(C)cc(C)c1 (stereo not drawn),12
COc1ccc(Oc2cccc(Cl)c2CNC(=O)c2ccccc2C(=O)O)cc1,20
COc1cccc(/C=N/NC(=O)c2ccoc2C)c1,12
Cn1c(N)c(C(=O)COc2ccc(Cl)cc2Cl)c(=O)n(C)c1=O,4
COc1ccc(-n2nc(C(N)=O)c(O)cc2=O)cc1,16
COC(=O)c1c(C(=O)OC)c(-c2cccc(Cl)c2)n2c1CS(=O)C2 (stereo not drawn),11
Cc1[nH]c(=O)[nH]c(=O)c1S(=O)(=O)N1CCCC(C(=O)NCc2ccccc2Cl)C1 (stereo not drawn),5
O=C(O)c1ccc(NC(=O)c2cn(-c3ccccc3)nc2-c2ccc(Cl)cc2)cc1,11

# Molecules above that contain a nitro group on carbon, in the order listed:
SMILES,Calb biofilm kill
CCC(CC)N=C1NS(=O)(=O)c2cc([N+](=O)[O-])ccc21,15
Nc1nc(NCc2ccco2)nc(Nc2ccccc2)c1[N+](=O)[O-],8
CCN1CCN(CCNC(=O)Nc2ccc([N+](=O)[O-])cc2)CC1,12
O=C(C[n+]1ccccc1)N/N=C/c1ccccc1[N+](=O)[O-],13
O=C(Nc1ccc(Cl)cn1)c1ccccc1[N+](=O)[O-],18
O=C(O)c1cccc(Oc2ccc([N+](=O)[O-])cc2)c1,14
COC(=O)C1=C(C)N(C)C(=O)NC1c1ccc([N+](=O)[O-])o1 (stereo not drawn),5
O=[N+]([O-])c1ccccc1CNc1ccc(F)c(Cl)c1,-18
Cc1cc(C)nc(N/N=C/c2cccc([N+](=O)[O-])c2)n1,38
O=C1c2c([N+](=O)[O-])cc([N+](=O)[O-])cc2S(=O)N1Cc1ccccc1 (stereo not drawn),8
Cc1c([N+](=O)[O-])c(C/C=N/O)nn1C,11

# (further entries)
SMILES,Calb biofilm kill
COC(OC)C(C)NC(=O)NC(=O)c1ccccc1Cl (stereo not drawn),11
NS(=O)(=O)c1ccc(CNC(=O)c2ccc(Cl)c([N+](=O)[O-])c2)cc1,7
Cc1onc(-c2c(F)cccc2Cl)c1C(=O)N=C(N)N1CCCC1,11
Cc1sc2nc(CN3CCC(C)CC3)nc(Cl)c2c1C,6
C[C@H](NC(=O)CCn1nnc2ccccc2c1=O)C(=O)O,17
Cc1cc2c(c(/C=C/C(=O)c3ccccc3)c1)OC1(C=C2)Oc2ccccc2C(=O)N1C (stereo not drawn),7
CC1(C)c2ccccc2-n2c1cc1oc(=O)cc(O)c1c2=O,17
O=C(CSc1ncccn1)Nc1cc(Cl)ccc1[N+](=O)[O-],13
CCOC(=O)c1ccc(NC(=O)/C=C/c2cccs2)cc1,0
